StopGo RLuc: FMDV 2A StopGo reporter, Renilla signal; actives 0.32% (n = 120,000); Potency, µM (top dose mostly 57.5 µM), for the others: at the highest dose signal change, negative = less light; HEK cells with a luciferase reporter of 2A StopGo recoding; active means well fitted falling curve with a large enough effect; inconclusive means small, poorly fitted or top-dose-only effect; inactive means no such curve, though single readings can be large or run the other way; further: nearly all actives have a fitted effect of over 55% in size; overnight with compound
StopGo FLuc: FMDV 2A StopGo reporter, firefly signal; HEK cells with a luciferase reporter of 2A StopGo recoding; Potency, µM (series often up to 57.5 µM), without a hit: at the top dose signal change, negative = less light; actives 0.23% (n = 120,000); active = well fitted falling curve with a large enough effect; inconclusive = small, poorly fitted or top-dose-only effect; inactive = no such curve, though single readings can be large or run the other way; further: nearly all actives have a fitted effect of over 60% in size; overnight with compound
* = called active by the depositor; ? = inconclusive; [ ] = remark or other dose. On the % scale 0 is the no-effect control and ±100 the full control effect; potency means the concentration at half of the fitted maximal effect. These rows are one share of the data. The share of hits here may be higher or lower than overall.

mol	StopGo RLuc	StopGo FLuc
Cc1ccc(CNC(=O)c2ccc3c(Cl)c4c(nc3c2)CCCC4)cc1	34%[activator]	2%
Cc1ccc(NC(=O)CSc2ncc3c(n2)-c2ccccc2N(C)S3(=O)=O)c(Cl)c1	?	?
CCOCCn1c(N2CCC(Cc3ccccc3)CC2)nc2c1c(=O)[nH]c(=O)n2C	-4%	20%
O=c1c2ccccc2n2c(-c3ccc(O)cc3)nnc2n1Cc1ccccc1Cl	-6%	2%
CCc1ccc2oc(C(=O)Nc3ccc(S(=O)(=O)N(CC)c4ccccc4)cc3)cc(=O)c2c1	-1%	-3%
Cc1cccc(Cn2cc(/C=C(/C#N)C(=O)Nc3cccc(Cl)c3)c3ccccc32)c1	-17%	-18%
NC(=O)C(NC(=O)c1cc(-c2ccccc2)n[nH]1)c1ccccc1 (centres undefined)	1%	38%[activator]
COc1ccc(-c2noc(CNC(=O)c3ccccc3Br)n2)cc1	-3%	-1%
Cc1cccc(C(C)C)c1NC(=O)/C=C/c1ccc(F)cc1	28%	4%
O=C1CC(c2ccccc2)Cc2[nH]c(=O)c(-c3nc(-c4ccc(Cl)c(Cl)c4)cs3)cc21 (centres undefined)	0%	-10%
COc1ccc(CCNS(=O)(=O)c2ccc3c(c2)CC(C)N3C(=O)C2CCC2)cc1OC (centres undefined)	34%[activator]	-13%
CCOC(=O)c1ccc(NC(=O)CC2C(=O)N(c3ccc(C)cc3)C(=O)N2C2CCCC2)cc1 (centres undefined)	31%	-18%
COc1ccc(-n2nc3c(N4CCC(C(=O)N5CCC(C)CC5)CC4)nnc(C)c3c2C)cc1	12%	-21%
CCN1CCN(c2nc3c(c(=O)[nH]c(=O)n3C)n2Cc2ccc(Br)cc2)CC1	-13%	-4%
O=C(O)CC(CNS(=O)(=O)c1ccc(I)cc1)c1ccccc1 (centres undefined)	40%[activator]	2%
Cc1cccc(NC(=O)CN2C(=O)C3(SCC(=O)N3c3ccccc3)c3ccccc32)c1 (centres undefined)	48%[activator]	70%[activator]
Cc1cc(-c2noc(COc3ccccc3)n2)c2ccccc2n1	14%	16%
Cn1c(=O)c2c(nc(NCc3ccco3)n2Cc2ccc(Br)cc2)n(C)c1=O	?	?
CC(OC(=O)c1nn(C)c(=O)c2ccccc12)C(=O)c1ccc(C(C)(C)C)cc1 (centres undefined)	-5%	-4%
Cc1cc(C)cc(NC(=O)Cn2c(-c3cncs3)nc3ccccc32)c1	-5%	-12%
COc1cc(NC(=O)c2cc3nc(-c4ccccc4)cc(-c4ccccc4)n3n2)c(OC)cc1Cl	-13%	-14%
CCn1c(NC(=O)C(C)C)c(-c2ccccc2)c(=O)c2ccccc21	3%	9%
O=C(Cn1cc(SCc2cccc(Cl)c2)c2ccccc21)N1CCCCC1	101%[activator]	76%[activator]
O=[N+]([O-])c1ccc(S(=O)(=O)N2CCn3cccc3C2c2ccc(Br)cc2)cc1 (centres undefined)	0%	-7%
CC1(C)CS(=O)(=O)N(c2ccc(S(=O)(=O)NCCc3ccccc3F)cc2)C1=O	68%[activator]	?
Cc1ccc(-c2cc(C(=O)OCC(=O)c3c(N)n(C)c(=O)n(C)c3=O)c3ccccc3n2)cc1	-3%	16%
O=C(COC(=O)c1cc(=O)[nH]c2ccccc12)Nc1ccccc1	-7%	8%
COc1cc(-c2nnc(SCc3nc4ccccc4o3)o2)cc(OC)c1OC	24%	72%[activator]
Cc1nc2ccc(S(=O)(=O)N(CC(=O)N3CCN(C)CC3)Cc3ccccc3)cc2s1	92%[activator]	9%
O=C(NNC(=O)c1ccc(NC(=O)C2CCCCC2)cc1)c1ccc(F)cc1	3%	19%
CCN(CC)S(=O)(=O)c1ccc(N2CCN(C)CC2)c(NC(=O)c2ccccc2F)c1	4%	-13%
O=C(OC/C=C/c1ccccc1)c1c[nH]c2ccccc12	28%	184%[activator]
CC1(C)CC(=O)C2=C(C1)N(c1ccc(C(F)(F)F)cc1)C(=O)CC2c1cccs1 (centres undefined)	4%	2%
O=C(NCc1ccnc(OCC(F)(F)F)c1)c1ccco1	-2%	11%
CNC(=O)C1CCC(Cn2c(=O)c3sccc3n(Cc3ccccc3)c2=O)CC1 (centres undefined)	-6%	-8%
CC1CCCC(NC(=S)c2ccc(C(C)(C)C)cc2)C1C (centres undefined)	31%[activator]	73%[activator]
O=[N+]([O-])c1cc(S(=O)(=O)Nc2ccc(Cl)cc2)ccc1N/N=C/c1ccc(-c2ccccc2)cc1	17%	-1%
COc1ccc2[nH]c(C)c(C(=O)CN3CCCCC3C)c2c1 (centres undefined)	0%	1%
CCCOc1ccc(NC(=O)C2(C)CC2(Cl)Cl)cc1OCCC (centres undefined)	7%	10%
Cc1cccc(Cn2c(=O)n(Cc3ccccc3)c(=O)c3sc4ccccc4c32)c1	-5%	-9%
COc1ccccc1CNC(=O)c1ccc(CN2CC(=O)N3CCCCC3C2=O)cc1 (centres undefined)	11%	1%
CCc1c(C)sc2c1CCN(C(=O)Nc1ccccc1C(F)(F)F)C2c1ccccc1 (centres undefined)	-7%	-20%
CCN(c1ccccc1)c1ncnc2c1cnn2-c1ccc(C)cc1C	24%	0%
CCOC(=O)c1sc(NC(=O)c2cccc(S(=O)(=O)N3CCOCC3)c2)cc1C	67%[activator]	6%
COc1ccccc1CNS(=O)(=O)c1ccc2c(c1)NC(=O)CC(=O)N2	-10%	-20%
Cc1ccc(C)c(N2CCN(S(=O)(=O)c3cc(C(=O)Nc4ccc(Oc5ccccc5)cc4)ccc3F)CC2)c1	?	?
Cc1nn2c(=O)cc(COc3ccc(/C=C(\C#N)C(=O)Nc4ccccc4)cc3Cl)nc2s1	36%[activator]	0%
COc1ccccc1-c1coc2cc(OCc3ccc(C)cc3)ccc2c1=O	-2%	63%[activator]
O=C(CSc1nc2ccccc2nc1N1CCCC1)NC1CCCC1	3%	-5%
COC(=O)CSc1nnc(COc2cccc3ccc(C)nc23)n1C	3%	11%
O=C1/C(=C/c2ccccc2Cl)Cc2ccccc21	166%[activator]	108%[activator]
CN(C)S(=O)(=O)N(CC(=O)Nc1ccc(Cl)cc1)c1ccccc1	27%	5%
CCC(C)NCc1ccc(C)s1 (centres undefined)	-16%	4%
Cc1cccc(C)c1NC(=O)CN(C)C(=O)CNC(=O)c1ccc2c(c1)OCO2	-7%	2%
CC1(C)C(=O)C2(CCCCC2)C(=O)OC1c1ccc(Br)cc1 (centres undefined)	-2%	-2%
CCOCc1nnc(NS(=O)(=O)c2ccc(Cl)cc2)s1	47%[activator]	11%
Cn1nccc1-c1ccn[nH]1	7%	0%
O=C(NCc1nc2ccccc2[nH]1)c1cc(-c2cccs2)nc2ccccc12	15%	0%
CC(=O)Nc1ccc(CNC(=O)Cc2c(F)cccc2Cl)cc1	23%	102%[activator]
Cc1ccc(SCC(=O)c2c(C)[nH]c3ccccc23)cc1	4%	94%[activator]

Another view of part of the listing above.
Values run as follows: StopGo RLuc | StopGo FLuc
COc1ccccc1-c1coc2cc(OCc3ccc(C)cc3)ccc2c1=O
 : -2% | 63%[activator]
Cn1c(=O)c2c(nc(NCc3ccco3)n2Cc2ccc(Br)cc2)n(C)c1=O
 : ? | ?
CN(C)S(=O)(=O)N(CC(=O)Nc1ccc(Cl)cc1)c1ccccc1
 : 27% | 5%
COC(=O)CSc1nnc(COc2cccc3ccc(C)nc23)n1C
 : 3% | 11%

The list continues:
mol	StopGo RLuc	StopGo FLuc
CC(=O)N1CCN(C(=O)C(=O)Nc2cccc3[nH]ccc23)CC1	3%	0%
COc1ccc(S(=O)(=O)Nc2nc3ccccc3nc2Nc2ccc(OC)c(Cl)c2)cc1	2%	4%
CN1c2ccc(Cl)cc2-c2nc(SCC(=O)NCc3ccc(F)cc3)ncc2S1(=O)=O	-10%	-13%
CCOC(=O)C1CCC(CNC(=O)N2CCCC2c2ccc(C)cc2)CC1 (centres undefined)	13%	10%
Cc1cc2oc(=O)cc(CN3CCN(S(=O)(=O)c4ccc5c(c4)OCCO5)CC3)c2cc1C(C)C	-5%	-7%
COc1cccc(Nc2nc(-c3cc4cc(Cl)ccc4oc3=O)cs2)c1	-2%	5%
COc1cc(NC(=O)C(Cc2ccccc2)n2c(=O)[nH]c3ccccc3c2=O)cc(OC)c1 (centres undefined)	1%	-20%
Cc1ccccc1NC(=O)Cn1cc(C(=O)c2ccco2)c2ccccc21	-12%	-2%
COc1ccc(C2C(C(=O)Nc3ccccc3)=C(C)Nc3nc(-c4ccc(Cl)cc4)nn32)cc1 (centres undefined)	-12%	-10%
O=S(=O)(Cc1ccc(Cl)cc1)Nc1nc2c(s1)CCCC2	74%[activator]	42%[activator]
CCc1ccccc1NC(=O)Cn1c(=O)n(-c2ccc(CC(=O)NCC3CCCO3)cc2)c(=O)c2ccccc21 (centres undefined)	-19%	-22%
CCOc1ccccc1NC(=O)C(CC)n1c(C(=O)OC)cc2occc21 (centres undefined)	4%	-5%
CCOc1ccc(NC(=O)Cn2nnc(C(=O)OC)c2C(=O)OC)cc1	-26%	-4%
Cc1ccc(N(CC(=O)NCCc2ccc(Cl)cc2)S(=O)(=O)c2c(C)noc2C)cc1	-4%	-30%
Cc1cc(C)c2c(CC(=O)Nc3nnc(CC(C)C)s3)coc2c1	-8%	-9%
Cc1cccc(-c2cc(C(=O)O)c3ccccc3n2)c1	6%	128%[activator]
COc1ccc(CCNC(=O)c2ccc(NC(=O)CC3SC(N4CCCCC4)=NC3=O)cc2)cc1 (centres undefined)	6%	2%
COc1cc(C(C)=O)ccc1OCC(O)CN(C)Cc1sccc1C (centres undefined)	19%	2%
COc1ccc(-c2ccc(=O)n(CC(=O)Nc3ccccc3C(F)(F)F)n2)cc1	15%	-6%
O=c1c2ccccc2c(-c2cccs2)nn1CC(O)COCc1cccs1 (centres undefined)	39%[activator]	-10%
CCc1ccc(CNC(=O)c2ccc3c(c2)nc2n3CCOC2)cc1	14%	15%
COc1ccc(N(C(C)C(=O)Nc2ccccc2Sc2ccccc2)S(C)(=O)=O)cc1 (centres undefined)	28%	-18%
COc1cc(Cl)c(C)cc1Nc1ncnc2c1nc1n2CCCC1	-3%	14%
CC(CNC(=O)Cc1ccc(NC(=O)N2CCSc3ncccc32)cc1)c1ccccc1 (centres undefined)	11%	15%
Cc1c(-c2ccc(Cl)cc2)c(=O)oc2ccc(OC(=O)N3CCOCC3)cc12	-4%	-23%
CCOc1ccc(NC(=O)c2cc(S(=O)(=O)N3CCCCC3)c[nH]2)cc1	0%	0%
O=C(CCCc1nc2ccccc2s1)NC1CCCCCCC1	10%	0%
CC1CCCCN1c1csc2ccc(F)cc2c1=O (centres undefined)	1%	20%
Cc1ccc2ncc(C(=O)N3CCN(c4ccccc4F)CC3)c(=O)n2c1	-10%	2%
CCOc1ccccc1NC(=O)C(Cc1ccccc1)NS(=O)(=O)c1ccc2c(c1)oc(=O)n2C (centres undefined)	-8%	-15%

Single records, as listed above:
Results for `CCOc1ccc(NC(=O)c2cc(S(=O)(=O)N3CCCCC3)c[nH]2)cc1` → StopGo RLuc: 0%; StopGo FLuc: 0%
Results for `O=c1c2ccccc2c(-c2cccs2)nn1CC(O)COCc1cccs1` (centres undefined) → StopGo RLuc: 39%[activator]; StopGo FLuc: -10%
Results for `CCn1c(NC(=O)C(C)C)c(-c2ccccc2)c(=O)c2ccccc21` → StopGo RLuc: 3%; StopGo FLuc: 9%

Further records
mol	StopGo RLuc	StopGo FLuc
COc1ccc(NC(=O)Cn2c(=O)n(CCCCCC(=O)NCc3ccc4c(c3)OCO4)c(=O)c3sccc32)cc1Cl	0%	0%
CC1=C(C(=O)Nc2ccccc2)C(c2ccc(C)cc2)NC(=S)N1 (centres undefined)	3%	6%
Cc1ccc(S(=O)(=O)NCCO)cc1C(=O)O	12%	12%
N#Cc1cn(C2CC2)c(=O)n(Cc2coc(-c3ccccc3)n2)c1=O	-5%	5%
Cc1cc(C)nc(NC(=O)Nc2cccc(Cl)c2)n1	3%	169%[activator]
O=C(CCC(=O)c1ccccc1)Nc1ccc(F)c(Cl)c1	-18%	-3%
Cc1ccccc1-c1nnc2sc(NC(=O)c3ccccc3)nn12	-9%	13%
CCOc1ccccc1C(=O)N1CCC(C(=O)c2ccc3c(c2)OCCO3)CC1	-6%	-2%
COc1ccccc1C(=O)Oc1ccc(F)cc1C(=O)/C=C/c1ccc(C)cc1	90%[activator]	?
CCOc1ccc(NC(=O)Cn2c(=O)oc3cc(S(=O)(=O)N4CCCCCC4)ccc32)cc1	-15%	-18%
COc1cc(NC(=O)C2CCN(c3cnc4ccccc4n3)CC2)cc(OC)c1OC	?	-10%
O=CNNC(=S)NCCc1ccccc1	8%	6%

Screening data as filed in PubChem.
